# High-throughput results deposited in PubChem BioAssay by Broad Institute.
# NOMO-1 viab: STK33 inhibitor candidate reducing NOMO-1 cell viability. NOMO-1 AML viability, CellTiter-Glo luminescence, 72 h. inhibition, % (no concentration beside the values). 37,000 compounds, 7.5% hits;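 active = most replicates above 80%; inconclusive = exactly half above 80%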;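 note: wells of about 30 µL received 25 nL stock; 0% = median of vehicle wells and 100% = reference inhibitor level; the first replicate is given; inactives centre near 10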
# Starred values were filed as active, the others as inactive; ? = inconclusive.
SMILES,NOMO-1 viab
COc1ccc(CN(C)C[C@H]2Oc3ccc(NS(C)(=O)=O)cc3C(=O)N([C@@H](C)CO)C[C@H]2C)cc1,-24
C[C@@H]1CCCCO[C@H](CN(C)C(=O)Cc2ccccc2)[C@@H](C)CN([C@H](C)CO)C(=O)c2cc(N(C)C)ccc2O1,2
CCOC(=O)c1nc2ccccc2c(=O)n1/N=C/c1cc(Cl)cc(Cl)c1O,101*
C[C@H](CO)N1C[C@H](C)[C@H](CN(C)S(C)(=O)=O)Oc2c(NC(=O)NC3CCCCC3)cccc2C1=O,-10
COc1ccc(NC(=O)Nc2ccc3c(c2)CC(=O)N([C@H](C)CO)C[C@H](C)[C@H](CN(C)C(=O)Nc2ccc(F)cc2)O3)cc1,22
C[C@H]1CN([C@@H](C)CO)C(=O)c2cc(NC(=O)C3CCCCC3)ccc2O[C@@H]1CN(C)S(=O)(=O)c1ccc(Cl)cc1,17
CCN(CC(=O)Nc1ccccc1)S(=O)(=O)c1ccc(Cl)cc1,13
C[C@@H]1CN([C@@H](C)CO)C(=O)Cc2cc(NC(=O)NC3CCCCC3)ccc2O[C@@H]1CN(C)Cc1ccc(C(F)(F)F)cc1,65
C[C@H]1CN([C@@H](C)CO)C(=O)Cc2cc(NC(=O)Cn3cnnn3)ccc2O[C@@H]1CN(C)S(C)(=O)=O,-7
C[C@@H]1CN([C@H](C)CO)C(=O)c2cc(NC(=O)Cn3cnnn3)ccc2O[C@H]1CN(C)Cc1ccccc1,4
C[C@H](CO)N1C[C@H](C)[C@H](CN(C)Cc2ccc(C(=O)Nc3ccccc3N)cc2)Oc2ccc(NS(=O)(=O)c3ccc(F)cc3)cc2C1=O,109*
Cc1ccc(C(=O)Nc2ccccc2)c(C)n1,4
Cc1noc(C)c1NC(=O)N(C)C[C@H]1OCCCC[C@@H](C)Oc2ccc(N(C)C)cc2C(=O)N([C@H](C)CO)C[C@@H]1C,-2
Cc1ccc(S(=O)(=O)N2CCCC2C(=O)NCc2ccco2)cc1 (centres undefined),-2
COC(=O)CSc1nnc(-c2cc(OC)c(OC)c(OC)c2)n1C,-3
Cc1ccc(S(=O)(=O)Nc2ccc3c(c2)C(=O)N([C@H](C)CO)C[C@@H](C)[C@H](CN(C)Cc2ccc(-c4ccccc4)cc2)O3)cc1,111*
COc1ccc(NC(=O)Nc2ccc3c(c2)C(=O)N([C@H](C)CO)C[C@H](C)[C@H](CN(C)C(=O)Nc2c(C)noc2C)OCCCC[C@@H](C)O3)cc1,-10
COc1ccc(NC(=O)N(C)C[C@@H]2Oc3ccc(NC(=O)C4CC4)cc3CC(=O)N([C@H](C)CO)C[C@@H]2C)cc1,-2
Cc1sc2ncn(CC(=O)Nc3ccc(F)cc3)c(=O)c2c1C,21
COc1ccc(C(Nc2ccccn2)c2cc(Cl)c3cccnc3c2O)cc1[N+](=O)[O-] (centres undefined),113*
C[C@@H]1CN([C@H](C)CO)C(=O)Cc2cc(NC(=O)CCN3CCOCC3)ccc2O[C@@H]1CN(C)C(=O)NC1CCCCC1,-4
C[C@H](CO)N1C[C@H](C)[C@H](CN(C)C(=O)Nc2cccc3ccccc23)Oc2c(NC(=O)Nc3cccc4ccccc34)cccc2C1=O,?
CCc1ccc[n+](OC(=O)N(CC)CC)c1,102*
C[C@@H]1CCCCO[C@H](CN(C)C(=O)NC2CCCCC2)[C@@H](C)CN([C@H](C)CO)C(=O)c2cc(NS(=O)(=O)c3ccc(F)cc3)ccc2O1,37
COc1ccc(CN(C)C[C@@H]2Oc3c(NC(=O)c4ccncc4)cccc3C(=O)N([C@H](C)CO)C[C@H]2C)cc1,19
COc1ccc(NC(=O)Nc2ccc3c(c2)C(=O)N([C@H](C)CO)C[C@H](C)[C@H](CN(C)S(=O)(=O)c2cn(C)cn2)OCCCC[C@@H](C)O3)cc1,-2
C[C@@H]1CN([C@H](C)CO)C(=O)c2cccc(NC(=O)Nc3ccc4c(c3)OCO4)c2O[C@@H]1CN(C)C(=O)Nc1ccc2c(c1)OCO2,28
COc1ccc(CN(C)C[C@@H]2Oc3ccc(NC(=O)Nc4cccc5ccccc45)cc3C(=O)N([C@H](C)CO)C[C@H]2C)cc1,-7
COc1ccc(S(=O)(=O)Nc2cccc3c2O[C@@H](CN(C)Cc2ccccc2)[C@H](C)CN([C@@H](C)CO)C3=O)cc1,-14
CCc1cc(C(=O)OC)c(NC(=O)CC2Nc3cccc4cccc(c34)NC2=O)s1 (centres undefined),31

# An excerpt from above in order of molecular weight, smallest number first.
SMILES,NOMO-1 viab
CCc1ccc[n+](OC(=O)N(CC)CC)c1,102*
Cc1sc2ncn(CC(=O)Nc3ccc(F)cc3)c(=O)c2c1C,21
CCc1cc(C(=O)OC)c(NC(=O)CC2Nc3cccc4cccc(c34)NC2=O)s1 (centres undefined),31
COc1ccc(C(Nc2ccccn2)c2cc(Cl)c3cccnc3c2O)cc1[N+](=O)[O-] (centres undefined),113*
COc1ccc(NC(=O)N(C)C[C@@H]2Oc3ccc(NC(=O)C4CC4)cc3CC(=O)N([C@H](C)CO)C[C@@H]2C)cc1,-2
COc1ccc(S(=O)(=O)Nc2cccc3c2O[C@@H](CN(C)Cc2ccccc2)[C@H](C)CN([C@@H](C)CO)C3=O)cc1,-14
C[C@@H]1CN([C@H](C)CO)C(=O)Cc2cc(NC(=O)CCN3CCOCC3)ccc2O[C@@H]1CN(C)C(=O)NC1CCCCC1,-4
Cc1ccc(S(=O)(=O)Nc2ccc3c(c2)C(=O)N([C@H](C)CO)C[C@@H](C)[C@H](CN(C)Cc2ccc(-c4ccccc4)cc2)O3)cc1,111*
C[C@H](CO)N1C[C@H](C)[C@H](CN(C)C(=O)Nc2cccc3ccccc23)Oc2c(NC(=O)Nc3cccc4ccccc34)cccc2C1=O,?
C[C@@H]1CCCCO[C@H](CN(C)C(=O)NC2CCCCC2)[C@@H](C)CN([C@H](C)CO)C(=O)c2cc(NS(=O)(=O)c3ccc(F)cc3)ccc2O1,37
COc1ccc(NC(=O)Nc2ccc3c(c2)C(=O)N([C@H](C)CO)C[C@H](C)[C@H](CN(C)C(=O)Nc2c(C)noc2C)OCCCC[C@@H](C)O3)cc1,-10

# Additional records.
SMILES,NOMO-1 viab
Cc1ccc(N(C(C)C(N)=O)S(C)(=O)=O)cc1C (centres undefined),-1
COc1ccc(S(=O)(=O)N(C)CC(=O)NC2CCCCC2)cc1C,12
C[C@H](CO)N1C[C@H](C)[C@H](CN(C)C(=O)Nc2ccc(C(F)(F)F)cc2)Oc2ccc(NC(=O)NC3CCCCC3)cc2CC1=O,3
Cc1cc([N+](=O)[O-])ccc1NC(=O)CSc1nnnn1-c1ccccc1,26
C[C@@H]1CN([C@@H](C)CO)C(=O)c2cccc(NS(=O)(=O)c3ccc(F)cc3)c2O[C@H]1CN(C)C(=O)NC1CCCCC1,4
COc1ccc(S(=O)(=O)N(C)CC(=O)Nc2c(F)cccc2F)cc1,16
CN(C)N1C(=O)c2cccc3cccc(c23)C1=O,-17
C[C@@H]1CN([C@@H](C)CO)C(=O)c2cc(NC(=O)Nc3ccc(C(F)(F)F)cc3)ccc2O[C@H]1CN(C)Cc1ccc(C(F)(F)F)cc1,117*
CC(C)NC(=O)Nc1ccc2c(c1)C(=O)N([C@H](C)CO)C[C@@H](C)[C@@H](CN(C)Cc1ccc(Oc3ccccc3)cc1)O2,26
CCN1C(=O)c2cccc3c(NC(=S)NC(=O)c4ccccc4)ccc1c23,31
COc1ccc(S(=O)(=O)N(C)C[C@@H]2Oc3ccc(NS(=O)(=O)c4ccc(Cl)cc4)cc3C(=O)N([C@@H](C)CO)C[C@@H]2C)cc1,55
COc1ccc(-n2c(SCC(=O)c3ccccc3)nnc2-c2ccncc2)cc1,-2
C[C@H](CO)N1C[C@H](C)[C@@H](CN(C)Cc2ccc(Cl)c(Cl)c2)Oc2ccc(NC(=O)Cc3ccccc3)cc2C1=O,29
Cc1cc(-c2ccccc2)nc(SCC(=O)Nc2ccc(I)cc2)n1,-1
N#CC1=C(N)Oc2c(sc3ccccc23)C1c1ccccc1OC(=O)c1ccccc1Cl (centres undefined),115*
COc1cccc(OC)c1C(=O)Nc1ccc(C(=O)NCC2CCCO2)cc1 (centres undefined),9
COc1ccc(CN(C)C[C@@H]2Oc3c(NC(=O)C4CCCCC4)cccc3C(=O)N([C@@H](C)CO)C[C@@H]2C)cc1,17
Cc1cccc(-c2nnc(SCC(=O)Nc3ccc(Br)cc3F)o2)c1,3
C[C@@H]1CCCCO[C@H](CN(C)Cc2ccncc2)[C@@H](C)CN([C@H](C)CO)C(=O)c2cc(NC(=O)CCC(F)(F)F)ccc2O1,15
COC(=O)c1ccccc1NC(=O)c1nc2nc(C)cc(C(F)F)n2n1,5
C[C@@H]1CN([C@@H](C)CO)C(=O)Cc2cc(NS(=O)(=O)c3ccc(Cl)cc3)ccc2O[C@@H]1CN(C)Cc1ccc(C(=O)O)cc1,11
Cc1ccc(S(=O)(=O)N(C)C[C@@H]2Oc3ccc(NS(=O)(=O)c4ccc(Cl)cc4)cc3CC(=O)N([C@H](C)CO)C[C@@H]2C)cc1,35
CN1CCN(C(=O)CN(c2cccc(Cl)c2)S(=O)(=O)c2ccc(Cl)cc2)CC1,-7
COc1ccc(S(=O)(=O)Nc2ccc3c(c2)C(=O)N([C@H](C)CO)C[C@H](C)[C@@H](CN(C)S(=O)(=O)c2cccs2)O3)cc1,6
C[C@@H]1CN([C@@H](C)CO)C(=O)c2cc(NC(=O)Cn3cnnn3)ccc2O[C@H]1CN(C)S(C)(=O)=O,31
COc1ccc(NC(=O)N(C)C[C@@H]2Oc3c(NS(=O)(=O)c4ccccc4)cccc3C(=O)N([C@H](C)CO)C[C@H]2C)cc1,-1
Cc1cc(C)c(NC(=O)CSc2nc(C)cc(=O)[nH]2)c([N+](=O)[O-])c1,-4
Cc1ccc(S(=O)(=O)N(C)C[C@H]2Oc3ccc(NS(=O)(=O)c4c(C)noc4C)cc3CC(=O)N([C@H](C)CO)C[C@H]2C)cc1,46
C[C@@H]1CN([C@@H](C)CO)C(=O)c2cc(N(C)C)ccc2O[C@@H]1CN(C)S(=O)(=O)c1cn(C)cn1,6
C[C@H]1CN([C@@H](C)CO)C(=O)c2cc(N(C)C)ccc2O[C@H]1CN(C)S(=O)(=O)c1cccs1,-9
C[C@@H]1CCCCO[C@H](CN(C)C(=O)C2CCCCC2)[C@@H](C)CN([C@H](C)CO)C(=O)c2cc(NC(=O)CCC(F)(F)F)ccc2O1,-4
C[C@H](CO)N1C[C@H](C)[C@H](CN(C)CC2CCCCC2)Oc2ccc(NC(=O)Nc3ccc(F)cc3)cc2CC1=O,95*
Cc1noc(C)c1NC(=O)Nc1cccc2c1O[C@@H](CN(C)Cc1ccccc1)[C@@H](C)CN([C@H](C)CO)C2=O,20
Cc1nc2sc3c(c2c2nnc(SCC(=O)Nc4ccc(Br)cc4)n12)CCCC3,-13
C[C@H](CO)N1C[C@H](C)[C@H](CN(C)C(=O)Nc2ccc(C(F)(F)F)cc2)Oc2ccc(NC(=O)Nc3cccc4ccccc34)cc2CC1=O,46
C[C@@H]1CN([C@@H](C)CO)C(=O)c2cc(NC(=O)Nc3ccc4c(c3)OCO4)ccc2O[C@@H]1CN(C)Cc1ccc(Cl)c(Cl)c1,95*
N#Cc1c(NC(=O)CSc2ncccn2)sc2c1CCCC2,27
CC(=O)O[C@H]1[C@H](Oc2cc(O)cc(O)c2C(=O)c2cc(O)cc(O)c2)O[C@H](CO)[C@@H](OC(=O)c2ccccc2)[C@@H]1O,-2
Cc1c(O)cc(O)c2c1OC(c1ccccc1)CC2=O (centres undefined),2
COc1ccc(NC(=O)N(C)C[C@@H]2Oc3ccc(NC(=O)Nc4ccc5c(c4)OCO5)cc3C(=O)N([C@@H](C)CO)C[C@@H]2C)cc1,-1
C[C@H]1CN([C@@H](C)CO)C(=O)Cc2cc(NC(=O)Cc3cn(C)c4ccccc34)ccc2O[C@H]1CN(C)Cc1ccc(Cl)c(Cl)c1,28
CC(C)NC(=O)Nc1ccc2c(c1)C(=O)N([C@@H](C)CO)C[C@@H](C)[C@H](CN(C)C(=O)Nc1ccc3c(c1)OCO3)O2,18
C[C@H]1CN([C@@H](C)CO)C(=O)Cc2cc(NS(C)(=O)=O)ccc2O[C@@H]1CN(C)C(=O)Nc1ccc(F)cc1,18
C[C@@H]1CN([C@@H](C)CO)C(=O)c2cc(NC(=O)Cn3cnnn3)ccc2O[C@H]1CN(C)C(=O)NC1CCCCC1,-1
CCc1ccc(NC(=O)Cn2c(-c3nonc3N)nc3ccccc32)cc1,5
c1ccc(NC2CCCCC2)nc1,4
C=C(Oc1cccc(C(=O)O)c1)C(=O)O,-7
Cc1ccc2c(c1)C(=O)C1(O)CCN(c3ccccc3)C1=N2 (centres undefined),109*
CNC[C@H]1OCCCC[C@@H](C)Oc2ccc(NS(=O)(=O)c3ccccc3)cc2C(=O)N([C@H](C)CO)C[C@@H]1C,-2
CCc1cc(C(c2ccc(Cl)cc2)N2CCN(CCO)CC2)c(NC(=O)c2ccccc2)s1 (centres undefined),117*
C[C@@H]1CN([C@H](C)CO)C(=O)c2cc(NC(=O)CCCN(C)C)ccc2O[C@@H]1CN(C)S(C)(=O)=O,6
C[C@@H]1CN([C@@H](C)CO)C(=O)c2cccc(NC(=O)c3ccncc3)c2O[C@@H]1CN(C)S(=O)(=O)c1ccc(F)cc1,0
C=CCNc1sc(C)nc1C(N)=O,7
C[C@@H]1CN([C@@H](C)CO)C(=O)c2cc(NS(=O)(=O)c3ccccc3)ccc2O[C@H]1CN(C)Cc1ccc2c(c1)OCO2,16
Cc1nnc(SCC(=O)Nc2ccccc2C(F)(F)F)s1,11
Cc1c(N(C)C(=O)C2CCCN2S(=O)(=O)c2ccccc2)c(=O)n(-c2ccccc2)n1C (centres undefined),11
COc1cccc2cc(-c3nnc(SCC(=O)Nc4cccc(Br)c4)n3C)oc12,107*
C[C@@H]1CN([C@H](C)CO)C(=O)c2cccc(NS(=O)(=O)c3ccc(F)cc3)c2O[C@H]1CN(C)Cc1ccc(Oc2ccccc2)cc1,64
C[C@H](CO)N1C[C@H](C)[C@H](CN(C)Cc2ccc(Cl)c(Cl)c2)Oc2ccc(NC(=O)Nc3ccc(F)cc3)cc2C1=O,-11
CCCc1c(C)nc2ccc(Br)cc2c1SCCC(=O)O,-2
COc1ccc(NC(=O)Nc2cccc3c2O[C@H](CN(C)C(=O)Nc2ccc(F)cc2)[C@H](C)CN([C@@H](C)CO)C3=O)cc1,-7

# The list is partial; rates above refer to the full screens.
